Screening data: PubChem BioAssay, ICCB-Longwood Screening Facility, Harvard Medical School
MbtI inh: inhibitors of Mycobacterium tuberculosis siderophore enzyme MbtI | P9WFX0 | purified MbtI enzyme, fluorescence intensity read-out | inhibition, %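 (about 17 µg/mL by stock and volumes)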 | actives 0.89% (n = 100,000) | AID 493033;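 active = above 50% in both replicates, above 80% if mildly self-fluorescent; inactive = the rest, strongly fluorescent compounds included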;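 also: 0% = mean of negative and 100% = mean of positive controls; one replicate is shown; some compounds called inactive have numbers as strong as hits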
MenB inh: Mtb MenB enzyme inhibition; inhibition, %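 (about 12 µg/mL by stock and volumes)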; actives 0.43% (n = 100,000); AID 540299; MenB enzyme assay, absorbance read-out; some hits fall short of the stated cut; P9WNP5;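 active = mean of two replicates above 30%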;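 also: 0% = no compound and 100% = wells with inactive enzyme; the first replicate is given; strong numbers were not always called active; inactives centre near -10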
Target sequence (P9WNP5 whole entry, looked up): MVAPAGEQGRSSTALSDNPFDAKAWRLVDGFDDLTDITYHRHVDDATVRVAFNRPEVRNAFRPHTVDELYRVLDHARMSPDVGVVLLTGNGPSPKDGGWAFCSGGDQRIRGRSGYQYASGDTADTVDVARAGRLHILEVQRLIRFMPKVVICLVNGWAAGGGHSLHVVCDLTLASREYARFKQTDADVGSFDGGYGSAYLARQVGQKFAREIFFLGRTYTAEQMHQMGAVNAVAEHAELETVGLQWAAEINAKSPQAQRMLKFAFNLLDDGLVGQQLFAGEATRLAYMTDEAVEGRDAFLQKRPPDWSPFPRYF
PV pol inh: inhibitors of poliovirus RNA polymerase binding and polymerization; poliovirus polymerase elongation, fluorescence polarization; active compounds read low; % elongation, % (compound at 16.7 µg/mL); actives 0.66% (n = 150,000); in the data active = % elongation below about 90%; also: some results filed as inactive read as strong as hits
Target sequence (P03300 1749-2209 limits assumed): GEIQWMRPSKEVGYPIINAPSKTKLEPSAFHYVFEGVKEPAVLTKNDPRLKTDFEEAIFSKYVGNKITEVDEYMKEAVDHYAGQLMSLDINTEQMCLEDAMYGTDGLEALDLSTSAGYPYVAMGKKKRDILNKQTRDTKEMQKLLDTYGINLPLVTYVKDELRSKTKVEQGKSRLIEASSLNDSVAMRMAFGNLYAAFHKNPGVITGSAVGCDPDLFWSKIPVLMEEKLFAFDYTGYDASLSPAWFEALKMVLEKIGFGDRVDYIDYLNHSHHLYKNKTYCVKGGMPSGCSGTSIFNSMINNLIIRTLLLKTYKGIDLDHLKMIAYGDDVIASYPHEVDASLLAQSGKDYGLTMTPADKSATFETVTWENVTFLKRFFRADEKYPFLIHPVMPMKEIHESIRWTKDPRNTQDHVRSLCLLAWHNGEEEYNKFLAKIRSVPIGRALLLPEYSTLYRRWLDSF
PV pol inh intensity: further read-out of PV pol inh, marked with its call; % elongation; measured here: total intensity read-out; formula for this scale not given here;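 total fluorescence in place of polarization; lower means less elongation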
An asterisk follows results filed as active; i = inactive; . = no result given.

The opening three compounds as a preview:
Labels used below – A = MbtI inh; B = MenB inh; C = PV pol inh; D = PV pol inh intensity
1: COC(F)(C(=O)NC12CC3CC(CC(C3)C1)C2)C(F)(F)F (stereo unspecified)
  A = 0 | B = -20 | C = 102 | D = 106
2: O=C(CNc1ccccc1)N/N=C/c1ccc(N2CCOCC2)cc1
  A = 120 | B = 0 | C = 102 | D = 98
3: Cc1cccc(-c2cc3nc(C)cc(NCCCn4ccnc4)n3n2)c1
  A = 90 | B = -50 | C = 103 | D = 103

The list itself (from the top)
Labels used below – A = MbtI inh; B = MenB inh; C = PV pol inh; D = PV pol inh intensity
1: COC(F)(C(=O)NC12CC3CC(CC(C3)C1)C2)C(F)(F)F (stereo unspecified)
  A = 0 | B = -20 | C = 102 | D = 106
2: O=C(CNc1ccccc1)N/N=C/c1ccc(N2CCOCC2)cc1
  A = 120 | B = 0 | C = 102 | D = 98
3: Cc1cccc(-c2cc3nc(C)cc(NCCCn4ccnc4)n3n2)c1
  A = 90 | B = -50 | C = 103 | D = 103
4: O=C1CC(Cc2ccccc2)N=C(NC(=O)c2ccccc2)N1 (stereo unspecified)
  A = -1 | B = 14 | C = 102 | D = 105
5: COc1cccc(-n2cnc3scc(-c4cccs4)c3c2=O)c1
  A = -2 | B = -7 | C = 102 | D = 100
6: O=C(CN1C(=O)c2ccccc2C1=O)c1ccc(Cl)cc1
  A = 15 | B = 13 | C = 6.0* | D = 27*
7: O=C(O)c1cccn2nnnc12
  A = -5 | B = -48 | C = 104 | D = 99
8: CCC1=Nc2cc(C(=O)N3CCC(C)CC3)ccc2Sc2ccccc21
  A = -2 | B = -19 | C = 103 | D = 111
9: CN1CCN(CCC(=O)Nc2cccc(F)c2)CC1
  A = -12 | B = -2 | C = 100 | D = 101
10: CNC(=S)N1CCc2c([nH]c3ccccc23)C1C(F)(F)F (stereo unspecified)
  A = -10 | B = -18 | C = 103 | D = 97
11: CCN(CC)c1cc(C)c2cc(NC(=O)C3CCCCC3)ccc2n1
  A = 18 | B = 8 | C = 101 | D = 104
12: O=C(CCc1nc2cccnc2n1-c1ccccc1)Nc1cccc(-c2ccno2)c1
  A = -3 | B = -19 | C = 102 | D = 102
13: OC(COC(C(F)(F)F)C(F)(F)F)CN1CCN(Cc2ccc3c(c2)OCO3)CC1 (stereo unspecified)
  A = -1 | B = -6 | C = 101 | D = 101
14: COC(=O)c1cc(OCC(=O)Nc2cccc3nsnc23)cc(C(=O)OC)c1
  A = 9 | B = -20 | C = 106 | D = 106
15: CC1(C)CC(=O)C2=C(C1)Nc1ccccc1N1C(=O)c3ccccc3C21 (stereo unspecified)
  A = 5 | B = -9 | C = 103 | D = 102

Reformatted screen by screen: part of the list above
#8 CCC1=Nc2cc(C(=O)N3CCC(C)CC3)ccc2Sc2ccccc21
#9 CN1CCN(CCC(=O)Nc2cccc(F)c2)CC1
#10 CNC(=S)N1CCc2c([nH]c3ccccc23)C1C(F)(F)F (stereo unspecified)
compound no. | 8 | 9 | 10
MbtI inh | -2 | -12 | -10
MenB inh | -19 | -2 | -18
PV pol inh | 103 | 100 | 103
PV pol inh intensity | 111 | 101 | 97

3 neighbouring entries already listed:
Labels used below – A = MbtI inh; B = MenB inh; C = PV pol inh; D = PV pol inh intensity
8: CCC1=Nc2cc(C(=O)N3CCC(C)CC3)ccc2Sc2ccccc21
  A = -2 | B = -19 | C = 103 | D = 111
9: CN1CCN(CCC(=O)Nc2cccc(F)c2)CC1
  A = -12 | B = -2 | C = 100 | D = 101
10: CNC(=S)N1CCc2c([nH]c3ccccc23)C1C(F)(F)F (stereo unspecified)
  A = -10 | B = -18 | C = 103 | D = 97

Later entries
Labels used below – A = MbtI inh; B = MenB inh; C = PV pol inh; D = PV pol inh intensity
16: Cc1cc(Cl)ccc1OCC(=O)Nc1ncc(Br)s1
  A = 5 | B = . | C = 100 | D = 101
17: CCOC(=O)Cn1c(Cl)c(/C=N/NC(=O)c2ccccc2)sc1=O
  A = 3 | B = -47 | C = . | D = .
18: S=c1n(CN2CCOCC2)nnn1C1CCCCC1
  A = . | B = -9 | C = 96 | D = 96
19: CNCc1cnn(-c2ccccc2)c1
  A = -15 | B = -6 | C = 104 | D = 103
20: Cc1nn(CCC(N)=O)c2nc(-c3cccs3)cc(C(F)(F)F)c12
  A = -11 | B = . | C = 101 | D = 102
21: CS(=O)(=O)N(CC(=O)N1CCCCCC1)c1cc(Cl)cc(Cl)c1
  A = -9 | B = 16 | C = 101 | D = 102
22: COc1cccc(C(O)c2nccn2Cc2ccccc2)c1OC (stereo unspecified)
  A = -7 | B = . | C = 102 | D = 106
23: CC1(C)CSC(=NCCc2ccccc2)N1
  A = -5 | B = . | C = 101 | D = 98
24: CN(Cc1nc2cc(C(F)(F)F)ccc2c(=O)[nH]1)C1CCCCC1
  A = -14 | B = -29 | C = 101 | D = 97
25: Cc1cc(CN)c2[nH]c3c(c2c1)CCCC3
  A = 90 | B = -51 | C = 104 | D = 101
26: O=C(CSc1nnc(Nc2ccccc2)s1)NCC1CCCO1 (stereo unspecified)
  A = 8 | B = -15 | C = 104 | D = 107
27: COc1ccc(-c2ccc(-c3noc(-c4ccccc4F)n3)c(OC)n2)cc1
  A = 0 | B = -24 | C = 101 | D = 105
28: O=C(N=Nc1c(O)[nH]c2ccccc12)C1CC1c1ccccc1 (stereo unspecified)
  A = 5 | B = -56 | C = 101 | D = 101
29: CN(C)/C=C1\SCc2ccccc2C1=O
  A = 15 | B = -118 | C = 100 | D = 98
30: CCN1CCN(C(=O)c2ccc3c(c2)N(Cc2ccc(C)cc2)CCS3)CC1
  A = -21 | B = -19 | C = 99 | D = 95
31: CCCn1c(NCc2sccc2C)nc2ccccc21
  A = -3 | B = 0 | C = 101 | D = 102
32: COCc1nc(SCC(=O)OC)c(C#N)cc1C(=O)OC
  A = 16 | B = 4 | C = 106 | D = 114
33: C=CCNc1oc(-c2ccc(OC)cc2)nc1C#N
  A = 115 | B = -11 | C = 100 | D = 99
34: COc1cccc(CNC(=O)CC2C(=O)Nc3c2c(=O)n(C)c(=O)n3Cc2ccccc2)c1 (stereo unspecified)
  A = -13 | B = -3 | C = 108 | D = 117
35: COc1cccc(C(=O)NC2=NC(CC(C)C)CC(=O)N2)c1 (stereo unspecified)
  A = 44 | B = 10 | C = 101 | D = 104
36: Cc1ccc(S(=O)(=O)N(c2ccccc2)C(F)F)cc1
  A = -15 | B = -30 | C = 101 | D = 101
37: Cc1nc(SCCN)n[nH]1
  A = 2 | B = 4 | C = 102 | D = 106
38: O=C(O)CCC1NC(=S)N(c2ccccc2)C1=O (stereo unspecified)
  A = 21 | B = -16 | C = 104 | D = 101
39: CCC(C)Sc1nnc(N)s1 (stereo unspecified)
  A = -3 | B = -2 | C = 101 | D = 101
40: CC1CCC(C(C)C)C(OC(=O)COC(=O)c2cc(S(=O)(=O)N3CCOCC3)ccc2O)C1 (stereo unspecified)
  A = -37 | B = -24 | C = 101 | D = 101
41: COc1ccc(C(CC(=O)c2ccccc2)CC(=O)c2ccccc2)cc1
  A = -1 | B = -7 | C = 102 | D = 101
42: C=C(C)C1CC=C(C)/C(=N/NC(=O)COc2ccc(C)cc2)C1 (stereo unspecified)
  A = 1 | B = -12 | C = 103 | D = 104
43: COc1ccc(/C=C/C=N/n2c(SC)nnc2-c2ccccc2)cc1
  A = 2 | B = -59 | C = 103 | D = 104
44: Cn1ncc(SCc2ccccc2)c(Cl)c1=O
  A = -3 | B = -19 | C = 109 | D = 110
45: COc1cc2c(cc1OC)C(C(=O)Nc1ccc(F)c(Cl)c1)CC(=O)N2 (stereo unspecified)
  A = 4 | B = -52 | C = 101 | D = 103

Next section:
cpd	SMILES	MbtI inh	MenB inh	PV pol inh	PV pol inh intensity
46	CC1CCCC(NC(=O)COC(=O)/C=C/c2ccc(F)cc2)C1C (stereo unspecified)	-11	.	102	106
47	CC1CCC(C(C)C)C(OP(N)(=O)c2ccc(N(C)C)cc2)C1 (stereo unspecified)	-1	-14	100	101
48	Cn1ncc(Cl)c(Oc2ccccc2)c1=O	-6	-24	102	103
49	Cc1sc2nc3n(c(=O)c2c1C)CCCS3	-5	3	100	101
50	CN(c1ccccc1)S(=O)(=O)c1cccc(C(=O)c2c(N)n(C)c(=O)[nH]c2=O)c1	-4	-5	97	96
51	CN(CC(=O)O)C1=NS(=O)(=O)c2ccccc21	1	-5	103	107
52	COc1cc(C(=O)Nc2nccs2)cc(OC)c1C	13	4	.	.
53	Cc1ccc2nc(-c3ccc4c(c3)NC(=O)CO4)cn2c1	66	-18	97	88
54	COc1ccc(-c2ccc(=O)n(CC(=O)NCC3CC3)n2)cc1OC	3	6	101	102
55	O=C1c2ccccc2C(=O)N1CCNCCN1C(=O)c2ccccc2C1=O	-4	0	101	102
56	CC1CN(C2=CC(=O)CCC2)CC(C)O1 (stereo unspecified)	23	-7	103	103
57	CC(C(O)c1ccccc1)N(C)S(=O)(=O)c1cccs1 (stereo unspecified)	0	-15	103	110
58	O=C(CCc1nc2cccnc2n1-c1ccccc1)N1CCCCC1	-4	-24	103	105
59	CS(=O)(=O)N1CCN(C(=O)C2c3ccccc3Oc3ccccc32)CC1	-4	-15	97	99
60	CC1=C(C(=O)Nc2ccc(C(=O)N3CCCCCC3)cc2)SCCO1	9	-16	101	102
61	O=C(CC(c1ccco1)C1CCCCC1=O)c1ccccc1 (stereo unspecified)	2	-27	103	98
62	Cc1oc2cc(OC(=O)c3ccco3)ccc2c(=O)c1-c1nc2ccccc2n1C	-1	10	103	103
63	Cc1ccc(SCC(=O)n2c3ccccc3c3ccccc32)cc1	4	-34	101	107
64	c1csc(-c2nnc(COc3nc4cc5c(cc4nc3N3CCOCC3)OCCO5)o2)c1	-49	-4	101	96
65	CCOC(=O)C1CCCCN1 (stereo unspecified)	-10	5	99	104
66	COc1ccc2[nH]c(O)c(N=NC(=O)OC(C)(C)C)c2c1	9	2	102	102
67	O=C1c2cccnc2C(=O)N1C1CCCCC1	-4	-17	101	101
68	COc1ccccc1CC(=O)Nc1ccc(S(=O)(=O)N(C)C)cc1	-25	-7	101	104
69	Cc1ccc(NCC(=O)c2ccc(-n3nncc3-c3ccccc3)cc2)cc1	8	.	103	108
70	Cc1cccn2c(=O)c3cc(C(=O)NC(C)c4ccccc4)c(=N)n(CC4CCCO4)c3nc12 (stereo unspecified)	i	-15	99	103
71	COCCN(C(=O)C1CC1)c1nnc(-c2cccc(C)c2)s1	1	10	101	104
72	CCOc1ccccc1C(=O)Nc1ccc(-c2ccc3nncn3n2)cc1	-63	-17	106	106
73	O=C(COc1ccccc1Br)N1CCCCC1	-7	-8	103	99
74	CCc1cccc(NCC(O)Cn2nnnc2-c2ccccc2)c1 (stereo unspecified)	-8	-9	103	105
75	COC(=O)c1cc(-c2ccccc2)sc1N	45	-35	94	94
76	CCOC(=O)Cc1csc(SCC(=O)Nc2cccc(C#N)c2)n1	-8	10	102	93
77	Cc1ccc2[nH]c(C)c(CCN(Cc3ccco3)C(=S)Nc3cccc(C)c3C)c2c1	0	-35	102	103

Structural class: the compounds so far containing a cyano group (three)
cpd	SMILES	MbtI inh	MenB inh	PV pol inh	PV pol inh intensity
32	COCc1nc(SCC(=O)OC)c(C#N)cc1C(=O)OC	16	4	106	114
33	C=CCNc1oc(-c2ccc(OC)cc2)nc1C#N	115	-11	100	99
76	CCOC(=O)Cc1csc(SCC(=O)Nc2cccc(C#N)c2)n1	-8	10	102	93

(cont.)
cpd	SMILES	MbtI inh	MenB inh	PV pol inh	PV pol inh intensity
78	O=c1n(Cc2cccc(C(F)(F)F)c2)nnn1-c1ccccc1	-17	-21	102	101
79	CCC1CN(Cc2ccccc2)CCC1=O (stereo unspecified)	0	-69	102	104
80	COC(=O)C1=C(C)NC(C)=C(C(=O)OC)C1c1cc2ccc(OC)cc2[nH]c1=O	-64	-11	102	101
81	Cc1cccc2cc(CN(C(=O)C(F)(F)F)C3CCCC3)c3nnnn3c12	-10	24	99	101
82	O=c1[nH][nH]c2ccccc2c1=O	-11	-2	99	101
83	O=c1cc(CSc2nnc(N3CCOCC3)n2-c2cccc(F)c2)nc2sc3c(n12)CCCC3	-4	12	101	104
84	CN(C)c1ccc(NC(=O)CSc2nc3ccccc3c(=O)n2CC2COc3ccccc3O2)cc1 (stereo unspecified)	-5	0	101	102
85	O/N=C1/CCN(Cc2ccccc2)C1	1	27	101	104
86	Cc1cccc(NCc2ccc(N(C)C)cc2)n1	2	14	100	103
87	CCOC(=O)c1nccn1CC(=O)N(CC)c1cccc(C)c1	-6	1	102	105
88	COC(=O)c1ccccc1N=Nc1c(N)[nH][nH]c1=O	6	-108	103	94
89	CCN(CC)C(=O)CSc1nc(-c2ccccc2)cn1N	-3	-15	113	126
90	O=C(CSc1nc2ccccc2[nH]1)N1CCc2ccccc2C1	14	.	104	101
91	Cc1ccc(N2C(=O)C(Cc3ccccc3)N=C2N(CCN(C)C)Cc2ccco2)c(C)c1 (stereo unspecified)	3	-20	104	100
92	CCN(CC)CC(=O)NC1(C)CCCCC1c1ccc(O)cc1 (stereo unspecified)	-12	-20	102	106
93	O=C(NCc1cccnc1)c1csc2ccccc12	-7	-5	101	104
